AID504770 = growth inhibition of E. coli YBA685, primary screen, V. cholerae RctB inhibitors; E. coli YBA685 rctB-dependent plasmid, OD600 growth, 3 h; active compounds read low; 130,000 tested, 0.27% active; z-score (no concentration beside the values);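 active means z-score under -2 on both plates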;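 further: wells of about 30 µL received 100 nL stock; score is relative to mean and SD of the test wells; the first replicate is given; strong numbers were not always called active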
CapD inh = Bacillus anthracis CapD inhibitors, primary screen, biochemical, fluorescence intensity; purified CapD enzyme, fluorescence intensity read-out; active compounds read low; some hits fall short of the stated cut; 140,000 tested, 0.23% active; z-score (test concentration not listed);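 active means z-score under -4 in either of two replicates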;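 further: stock transfer was 100 nL into about 40 µL; score is relative to mean and spread of the plate; one replicate is shown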
* = called active by the depositor; x = not tested or not shown.

Compound,AID504770,CapD inh
Cc1ccc(OC(C)C(=O)O)cc1 (stereo unspecified),-0.55,1.1
CCCCn1c(-c2ccccc2)nc(=S)c2c1CCCC2,0.1,-0.025
Cc1cc(=O)[nH]c2c1c(C)nn2C1CCCC1,-0.3,0.79
COc1ccc(CCNC(=O)C2NC(=O)CC2c2ccccc2)cc1OC (stereo unspecified),0.45,0.24
O=C1C=C(NCCc2ccccc2)C2(CCCCC2)O1,0.35,0.78
CC1(C)COC(c2ccccc2)=N1,-0.55,-0.11
Cc1nc2ncnn2c(C)c1CCC(=O)N(C)CC(=O)Nc1ccc(OC(F)(F)F)cc1,-0.05,x
Cc1ccc(C(=O)c2ccccc2C(=O)O)s1,-0.65,-0.4
CCOC(=O)C1CCCN(CCC(=O)Nc2ccc(Br)c(C)c2)C1 (stereo unspecified),-0.45,x
CCN1CCC2(CC1)NCCc1c2[nH]c2ccc(OC)cc12,-1.4,0.38
Cc1cc(NC(=O)/C(=C/c2cccs2)c2ccsc2)no1,-0.7,-0.68
COc1ccc(CN2C(=O)CC(C(=O)Nc3ccccc3OC)SC2=Nc2ccccc2)cc1 (stereo unspecified),x,-0.73
CCN(CC)CCCNC(=O)OCCc1c(C)cc(C)cc1C,x,-0.93
N#C/C(C(N)=O)=C1/SC=C(c2ccccc2)N1Cc1ccccc1,0.2,4.1
Cc1cc(C)nc(N(C(=O)C2CC2)c2ccc(Cl)cc2)n1,x,-0.035
COc1ccc(S(=O)(=O)N2CCCN(S(=O)(=O)c3ccc(OC)cc3C)CC2)c(C)c1,-0.85,-0.15
COc1ccccc1C(=O)N/N=C/c1ccc(C(F)(F)F)cc1F,x,-0.1
COC(=O)c1ccc(CSc2nnc(COc3ccccc3)o2)o1,0.5,0.065
C1=C2Nc3ccccc3N=C(c3ccccc3)C2NN1c1ccccc1 (stereo unspecified),1,x
CCc1c(C(=O)OC)c2cc(O)ccc2n1Cc1ccccc1,x,-0.085
O=C1CCC(C(=O)OCC(=O)N(C2CCCCC2)C2CCCCC2)=NN1,0.15,x
C=CCn1ccc2c(OCC(=O)c3ccccc3)cccc2c1=O,-0.85,x
O=C(CCN1C(=O)/C(=C/c2ccc(F)cc2)SC1=S)Nc1ncc(Cc2ccc(Cl)cc2)s1,x,-0.22
COc1cc(C2NC(=O)N(C)C(C)=C2C(=O)OCc2ccccc2)cc(Cl)c1O (stereo unspecified),x,-0.15
CC(CCOC(=O)Nc1ccc(C(C)(C)C)cc1)c1ccccc1 (stereo unspecified),x,-0.57
Cn1nc(-c2ccc(C(=O)O)cc2)c2ccccc2c1=O,0.05,-0.05
Cc1ccc2cc(CCNC(=O)c3ccc(S(=O)(=O)N4CCOCC4)cc3)c(=O)[nH]c2c1C,-1.1,x
CC1(C)CCC(C)(C)NC(SCC(=O)c2ccc(Cl)cc2)=N1,x,0.62
CC(CC(=O)O)NC(=O)c1ccc(OC(F)F)cc1 (stereo unspecified),0.45,x
COC(=O)c1ccc(/C=N/n2cc(-c3ccccc3)[nH]c2=S)cc1,0.2,x
CN(CCCN1c2ccccc2CCc2ccccc21)C(=O)OCC1CC1(Cl)Cl (stereo unspecified),x,-0.95
Cc1ccc(C2N3CC(C)(C)CN23)cc1 (stereo unspecified),-1.2,0.085
O=C(CCl)Nc1ccc(-c2nc(-c3ccccc3)c3cc(NC(=O)CCl)ccc3n2)cc1,x,24
COCCNC(=O)c1cc(S(=O)(=O)N2CCOCC2)cn1C,0,-0.2
Cc1c(Cl)cccc1N1C(=O)C(N2C(=O)c3ccc([N+](=O)[O-])cc3C2=O)C1c1cccc(F)c1 (stereo unspecified),x,-0.48
C=C(C)C1CC=C(C)C(=O)C1 (stereo unspecified),-0.5,x
CNC(=S)NNC(=O)c1ccco1,x,0.32
COc1cc(/C=C2/SC(=Nc3ccccc3)NC2=O)cc(OC)c1O,x,0.32
NC(=O)CCNC(=O)C(c1ccccc1)c1ccccc1,-0.05,0.48
CC(C)(C)c1csc(NC(=O)c2ccncc2)n1,2.2,-0.26
O=C(CCOc1ccccc1F)N1CCN(c2ccccc2O)CC1,0.35,0.53
CC(C)C(=O)OC1N=C(c2ccccc2Cl)c2cc(Br)ccc2NC1=O (stereo unspecified),x,-0.16
O=c1c(Cl)c(N2CCCC2)cnn1-c1ccccc1,1.2,-0.18
CC(=O)NC1=CC(=O)CC(C)(C)C1,-1,0.12
Cc1ccc2c(c1)NC(C)c1ccccc1O2 (stereo unspecified),0.2,x
O=C(Nc1ccc2snnc2c1)NC1CC1,-1.5,-0.025
COc1cc(OC)nc(C2CCN(C(=O)c3ccccc3NC(=O)c3cccs3)CC2)n1,x,0.56
Cc1ccc(Nc2cc(N3CCCC(C)C3)c3nonc3c2[N+](=O)[O-])cc1C (stereo unspecified),x,-0.33
CCOC(=O)c1c(NC(=O)Cc2ccc(Cl)cc2)sc(C(=O)Nc2ccccc2OC)c1C,x,1.1
C=CCc1nc2ccccc2c(=O)n1CC=C,-0.45,4.4
CSCCC(C(=O)O)N1C(=O)/C(=C/c2cccnc2)SC1=S (stereo unspecified),0.6,-2.6
CCCN1CCN(CCCNC(=S)Nc2ccc(F)cc2)CC1,0.15,-0.23
CCOC(=O)c1cc(C)n(CCc2ccccc2)c1C,-1.1,-0.26
CCC(OC(=O)CN1C(=O)c2ccccc2C1=O)C(=O)Nc1sc2c(c1C#N)CCCC2 (stereo unspecified),-0.2,0.29
COc1ccc(Nc2nc(Cl)nc(NCc3ccco3)n2)c(OC)c1,x,-0.69
O=C1NC(=S)NC(=O)C1=Cc1cn(Cc2c(F)cccc2Cl)c2ccccc12,x,-0.3
COC(=O)C(Cc1ccccc1)NC(=O)c1ccc2c(c1)C(=O)N(Cc1ccco1)C2=O (stereo unspecified),-0.6,x
N#Cc1ccsc1NC(=O)Cc1cccs1,0.6,x
OCc1ccccc1-c1ccccc1CO,-1.4,-0.025
Cc1ccc(S(=O)(=O)NCc2nc3ccccc3c(=O)n2N)cc1,-0.85,0.025

(continued)
Compound,AID504770,CapD inh
CN1CCN(C(CNC(=O)c2ccco2)c2ccc3c(c2)OCO3)CC1 (stereo unspecified),0.7,x
COc1ccc(CNC(=O)CCc2c[nH]c3ccccc23)cc1,x,0.81
COC(=O)c1cc(CSc2nnc(NCc3ccccc3)s2)oc1C,0.05,x
COc1ccc(CNC(=O)Cn2c(SC)nc3ccccc32)cc1,0.4,-0.08
Cc1ccc(C)c(S(=O)(=O)NCCOc2nc(NC(C)C)nc(NC(C)C)n2)c1,x,0.06
C/C(=N\NC(N)=S)c1ccc(O)cc1,-1.2,x
CCOCC(=O)NC12CC3CC(CC(C3)C1)C2,-0.65,0.12
Nc1ccc(C(=O)N/N=C/c2ccccc2)cc1,-0.1,-2.2
O=C(O)c1cccc(Oc2ccccc2)c1,0.7,0.53
CC(=O)[C@@H]1[C@@H](c2ccccc2F)C(C#N)(C#N)[C@H]2C=Cc3ccccc3N12,x,7
CCc1ccc(C(=O)Cn2c(N3CCOCC3)nc3ccccc32)cc1,-0.5,0.32
COc1ccccc1-n1cnnc1SCC(N)=O,0.7,x
N#Cc1c(NC(=O)c2cc(-c3cccs3)nc3ccccc23)oc(-c2ccco2)c1-c1ccco1,-0.25,x
N#CC(=C1SCCCS1)S(=O)(=O)c1cccs1,-0.7,-2.6
CCOC(=O)c1nc(Nc2ccc3c(c2)CCC3)c2ccccc2n1,x,-1.2

Reformatted: entries from further up.
Values run as follows: AID504770, CapD inh
Cc1ccc(C(=O)c2ccccc2C(=O)O)s1
  -0.65, -0.4
CCOC(=O)C1CCCN(CCC(=O)Nc2ccc(Br)c(C)c2)C1 (stereo unspecified)
  -0.45, x
CCN1CCC2(CC1)NCCc1c2[nH]c2ccc(OC)cc12
  -1.4, 0.38
Cc1cc(NC(=O)/C(=C/c2cccs2)c2ccsc2)no1
  -0.7, -0.68
COc1ccc(CN2C(=O)CC(C(=O)Nc3ccccc3OC)SC2=Nc2ccccc2)cc1 (stereo unspecified)
  x, -0.73
CCN(CC)CCCNC(=O)OCCc1c(C)cc(C)cc1C
  x, -0.93
N#C/C(C(N)=O)=C1/SC=C(c2ccccc2)N1Cc1ccccc1
  0.2, 4.1

(continued)
Compound,AID504770,CapD inh
Cc1ccc(C#N)c(SCC(=O)c2ccc(Br)cc2)n1,x,-0.93
CC1C(=O)CCC1(C(=O)Nc1ccccc1)c1ccccc1 (stereo unspecified),0.35,0.48
COC(=O)C12CCCC(C(N)=O)(CCC1)C2,-0.4,0.94
COc1ccccc1NC(=O)c1csc2c1CCCC2,0.65,0.38
N#Cc1c(C(F)(F)F)cc(-c2ccccc2)nc1Sc1ccccc1,x,-0.45
Brc1ccc(-c2cn3nc(-c4ccccc4)c(-c4ccccc4)nc3n2)cc1,x,-0.09
N#CC1=C(SCC(=O)Nc2ccccc2)NC(=O)CC1c1ccccc1 (stereo unspecified),0.6,0.34
CNC(=O)c1ccc(NC(=O)Nc2ccccc2)cc1,-0.2,0.02
CCCCNC(=O)c1cc2c(-c3cccc(OC)c3)nn(C)c2s1,-0.45,40
Cc1cccc(C)c1NC(=O)C1(N(C)C(=O)/C=C/c2ccc3c(c2)OCO3)CCCCC1,0.95,-1.1
Cc1cc(Nc2ccccc2)n(C(=O)c2ccccc2)n1,-0.4,-1
CC1(C)CC(=O)C2=C(C1)N=C1c3ccccc3C(=O)C1C2c1cc(Br)ccc1O (stereo unspecified),x,-1.1
O=c1c2ccccc2nc(SCCN2CCCCC2)n1CC1CCCO1 (stereo unspecified),-0.2,x
Cc1ccc(Oc2cnc3ccccc3n2)cc1,-0.65,-0.42
CCOc1ccc2cc(-c3cc4c(c(C)n3)c(=O)oc3cc(OCC)ccc34)c(=O)oc2c1,x,-0.08
COC(=O)c1cc(NC(=O)CNC2CCCCCC2)cc(C(=O)OC)c1,-0.05,x
Cc1ccc(NC(=O)C2COc3ccccc3O2)cc1 (stereo unspecified),x,-0.035
Cc1ccccc1OC(=O)c1ccc2ncsc2c1,0.25,x
O=C1NC2NC(=O)N(C3CCCCC3)C2N1 (stereo unspecified),x,0.72
CCOC(=O)c1c(C=O)oc2c(C)cc(OC(=O)c3ccc([N+](=O)[O-])cc3)c(Br)c12,x,-0.65
CCSc1nnc(NC(=O)C(C)SC2=NCCS2)s1 (stereo unspecified),-0.4,-0.05
Nc1nc(N)nc(COC(=O)CSCc2ccc(Cl)c(Cl)c2)n1,0.35,x
CC[N+]1(CC(O)COc2ccc(Br)cc2Br)CCOCC1 (stereo unspecified),-0.4,-0.88
CCSc1nc(-c2ccccc2)cc(=O)[nH]1,0.1,0.14
CCOCCn1ccc2c(OCC(=O)NC(C)(C)C)cccc2c1=O,-0.9,x
COC(=O)C1=C(N)OC2=C(C(=O)CC(C)(C)C2)C1c1cccnc1 (stereo unspecified),x,-0.4
O=C(O)CC1(CC(=O)N2CCC(n3cccc3)CC2)CCCC1,-0.85,-0.4
CC(C)C(=O)Nc1ccc(S(=O)(=O)N2CCCCC2c2cccnc2)cc1 (stereo unspecified),-0.9,-0.53
CCN(C(=O)CSc1cccc[n+]1[O-])C1CCCCC1,0.25,x
CCOc1ccc(-c2cnc3ccccc3n2)cc1,-0.35,16
Fc1c(F)c(F)c(C2Nc3cccc4cccc(c34)N2)c(F)c1F,x,-0.35
C=CCOc1ccc(CNC(C)(C)C)cc1,-1.5,x
O=C(NCc1ccco1)c1cc2cc(Br)ccc2oc1=O,0.1,-0.035
O=C(Nc1ccc(F)cc1)c1cc2c(s1)-c1ccccc1SC2,0.95,19
COc1ccc(N2CC(NC(=O)N3CC(C)OC(C)C3)CC2=O)cc1 (stereo unspecified),-0.9,x
O=C(Nc1ccccc1)c1ccn[nH]1,0.65,-0.02
N#Cc1ccccc1NC(=O)C1=COCCO1,-0.25,x
c1ccc(CN2CCC(c3cccs3)=N2)cc1,-0.55,85
CN(C)c1ccc(/C=N/OCC(=O)Nc2ccccc2C#N)cc1,0.65,x
COc1cc(OC)nc(C(c2ccccc2)N2CCN(C=O)CC2)n1 (stereo unspecified),x,-0.43
OCCN1CCN(c2ncnc3sc(-c4ccccc4)cc23)CC1,0.65,x
CCS(=O)CCSc1nc(-c2ccccc2)cc(-c2ccccc2)c1C#N (stereo unspecified),x,-0.51
COc1ccc(S(=O)(=O)Nc2ccc3c(c2)n(C)c(=O)n3C)cc1C(=O)N1CCCCCC1,1,x
NC(=O)COc1ccc(Br)cc1,-0.1,0.18
CCOc1ccc(N(CC)C(=S)Nc2ccc3nc(N4CCN(CC)CC4)cc(C)c3c2)cc1,-0.05,0.48
COc1ccc(N2CCN(CC(NS(=O)(=O)c3ccccc3)c3ccccc3)CC2)cc1 (stereo unspecified),-0.05,x
COCCCNC1CC2CCC1C2 (stereo unspecified),1.6,-0.03
CC1(C)CC(NCc2cc(Cl)c3c(c2)OCCCO3)CC(C)(C)N1,0.1,x

Of the compounds above, these contain a tert-butyl group:
Compound,AID504770,CapD inh
CC(CCOC(=O)Nc1ccc(C(C)(C)C)cc1)c1ccccc1 (stereo unspecified),x,-0.57
CC(C)(C)c1csc(NC(=O)c2ccncc2)n1,2.2,-0.26
CCOCCn1ccc2c(OCC(=O)NC(C)(C)C)cccc2c1=O,-0.9,x
C=CCOc1ccc(CNC(C)(C)C)cc1,-1.5,x

Screening results (PubChem BioAssay)
